Assay outcomes as filed in PubChem.
NS5 inhibitors: Dengue-2 NS5 methyltransferase inhibitors, primary screen, biochemical, confirmation dose response (AID 588689) | Dengue-2 NS5 methyltransferase capping enzyme assay, biochemical; higher % means a stronger effect | 0.3% of 340,000 active | inhibition, % at 25 µM; hits with a dose series show IC50 in µM; in the data active = a potency from the dose series; inconclusive = inhibition above about 29% without an active follow-up result
HIV fusion peptide: inhibitors of HIV fusion peptide binding, primary screen, biochemical, uHTS, fluorescence dequenching (AID 1986) | cell-free peptide binding, fluorescence dequenching, 30 min; higher % means a stronger effect | one-dose inhibition, % at 20 µM; IC50 in µM for titrated hits | 0.3% of 290,000 active; in the data active = inhibition mostly above about 52%, no sharp cut-off; inactive = mostly below about 76%; note: some results filed as inactive read as strong as hits
Yfh1-off respiration: mitochondrial function rescue without frataxin homolog – Friedreich's ataxia, plus single-dose screen, dose response (AID 1465); S. cerevisiae Yfh1-off respiration, WST-1 reduction, 72 h; higher fold induction means a stronger effect; 0.074% of 220,000 active; fold induction at 50 µM; hits with a dose series show EC50 in µM;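 active = fold induction of absorbance versus untreated yeast above a set limit, then at least 30% activation at any dose in follow-up; inconclusive = repeats straddling the limit, or above it without dose testing; inactive = fold induction below the set limit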;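 note: activators that raise dye reduction in frataxin-depleted yeast; strong numbers were not always called active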
KOR beta-arrestin-1: KOR antagonists, beta-arrestin recruitment, cell-based, luminescence, uHTS (AID 1778); KOR beta-arrestin recruitment, luminescence, antagonist mode; higher % means a stronger effect; one-dose inhibition, % at 10 µM; IC50 in µM for titrated hits; 0.091% of 290,000 active; in the data active = inhibition above about 50%; note: strong numbers were not always called active
AID2073: disruptors of CaV2.2 binding to Mint1 – biochemical, HTRF (AID 2073). HTRF protein-protein interaction, Mint1-CaV2.2; higher % means a stronger effect. one-dose inhibition, % at 20 µM; IC50 in µM for titrated hits. 0.19% of 290,000 active; in the data active = inhibition mostly above about 51%, no sharp cut-off; inconclusive = no clear call, values can overlap the other calls; inactive = mostly below about 53%; note: some results filed as inactive read as strong as hits
KOR beta-arrestin-2: KOR agonists, beta-arrestin recruitment, primary screen, cell-based, luminescence, uHTS (AID 1777). KOR beta-arrestin recruitment, luminescence; higher % means a stronger effect. activation, % at 10 µM, or EC50 in µM where a hit was titrated. 0.02% of 280,000 active; in the data active = activation above about 50%, passing the limit was not always enough; note: a part of the inactive calls stands beside numbers as strong as those of hits
West Nile virus CPE: inhibition of WNV-induced cytopathic effect – cell-based, CPE readout (AID 1621); CPE inhibition, % at 10 µM, or IC50 in µM where a hit was titrated; 0.02% of 290,000 active; West Nile virus-infected cells, CPE inhibition; higher % means a stronger effect; in the data active = a potency from the dose series; inconclusive = CPE inhibition mostly from about 3.7% at the one dose, without a potency; inactive = the rest, 99 in 100 with CPE inhibition below about 2.2%; note: strong numbers were not always called active
NS5 inhibitors pilot replicate: second read-out of NS5 inhibitors, no call of its own (marks repeat the call); inhibition, %; measured here: pilot screen replicate inhibition
* hit, by the source's call; i = inactive; ? = inconclusive; nt = no result given; [ ] = another dose, or the depositor's remark. Only part of the results is shown; the hit share may differ from the screen's.

SMILES	NS5 inhibitors	HIV fusion peptide	Yfh1-off respiration	KOR beta-arrestin-1	AID2073	KOR beta-arrestin-2	West Nile virus CPE	others
Cc1nc(SCC(=O)NCCc2ccc(Cl)cc2)nc(C)c1C	-6%	-2.2%	i	8%	0%	1.6%	0.1%
Clc1ccc(-c2cn3ccccc3n2)cc1	nt	-1.5%	nt	-24%[20 µM]	10%	nt	-0.7%
CC(C)c1ccc(-c2nnn(CCC(=O)O)n2)cc1	-8%	-1.2%	i	-12%	-12%	5.0%	-0.4%	NS5 inhibitors pilot replicate=-3.5
Cc1cc(C(=O)Nc2ccc(Cl)cc2)c(C)n1-c1ccccc1	nt	0.7%	i	-14%	-8%	4.3%	0.2%
CCOc1cc(C)c(Cl)cc1S(=O)(=O)n1nnc2ccccc21	-5%	2.0%	i	-10%	9%	3.5%	0.1%
COc1ccc(-c2csc(NC(=O)c3ccccc3NS(=O)(=O)c3ccc(C)cc3)n2)cc1	7%	12µM*	nt	-26%	22%	8.0%	nt
O=c1cc(C(F)(F)F)[nH]c2ccc(C(F)(F)F)cc12	-4%	-1.0%	i	-12%	11%	8.7%	-1.4%
COc1cccc2c1C(=O)c1c(O)c3c(c(O)c1C2=O)C[C@](O)(C(C)=O)C[C@H]3O[C@@H]1C[C@@H](N)[C@@H](O)[C@@H](C)O1	0%	nt	nt	nt	nt	nt	nt
CC1=CC(C)(C)Nc2ccc(OC(=O)CN3C(=O)CCC3=O)cc21	1%	2.5%	i	-24%	7%	2.6%	-1.5%
COc1cc(/C=C/c2ccc3cccc(O)c3n2)cc(OC)c1OC	0%	-0.5%	nt	-6%	25%	-2.5%	-0.1%
COc1ccc2cc3c(N)nn(C(=O)c4ccccc4Cl)c3nc2c1	-5%	0.5%	nt	-3%	2%	-0.2%	1.1%
Brc1ccc(-c2cn3ccccc3n2)cc1	-18%	-1.2%	i	-17%	18%	4.6%	-0.2%
O=C(Nc1ccccc1C(=O)Nc1nnc(C(F)(F)F)s1)c1ccccc1Cl	15%	56%	i	-15%	22%	-2.0%	-1.6%
C/C(=N\NC(=O)C(c1ccccc1)c1ccccc1)c1ccccn1	2%	-1.9%	i	81%*	-4%	-4.7%	1.0%
Cc1ccc([N+](=O)[O-])cc1N=Nc1c(-c2ccc([N+](=O)[O-])cc2)[nH]n(C(N)=S)c1=O	-9%	36%	i	39%	66%	-1.3%	0.3%
CCOC(=O)c1c(C)nc2c(c1-c1ccccc1)C(=O)CCC2	nt	-1.8%	i	-5%	-4%	-2.2%	0.4%
COc1ccc(N(C(=O)CCl)C(C(=O)NC2CCCCC2)c2cccnc2)cc1 (configuration not stated)	-7%	1.0%	i	2%	?	3.4%	-0.9%
COC(=O)C1=C(NC(=O)c2ccc(C)c(C)c2)CCS1	-5%	0.7%	i	-14%	14%	2.4%	-0.2%
COc1ccc(C2CC(c3cccs3)=NN2C(=O)CCl)cc1OC (configuration not stated)	-26%	-1.5%	nt	-21%	8%	-3.4%	-2.7%
CCN(CC)S(=O)(=O)c1ccc(Oc2ccc(S(=O)(=O)N(CC)CC)cc2)cc1	-7%	2.8%	i	-30%	10%	3.9%	-0.8%

Grouped by structure: the entries above with two or more sulfur atoms.
SMILES	NS5 inhibitors	HIV fusion peptide	Yfh1-off respiration	KOR beta-arrestin-1	AID2073	KOR beta-arrestin-2	West Nile virus CPE	others
COc1ccc(-c2csc(NC(=O)c3ccccc3NS(=O)(=O)c3ccc(C)cc3)n2)cc1	7%	12µM*	nt	-26%	22%	8.0%	nt
CCN(CC)S(=O)(=O)c1ccc(Oc2ccc(S(=O)(=O)N(CC)CC)cc2)cc1	-7%	2.8%	i	-30%	10%	3.9%	-0.8%

Returning to the listing; the 4 compounds before the break are reprinted first.
SMILES	NS5 inhibitors	HIV fusion peptide	Yfh1-off respiration	KOR beta-arrestin-1	AID2073	KOR beta-arrestin-2	West Nile virus CPE	others
COc1ccc(N(C(=O)CCl)C(C(=O)NC2CCCCC2)c2cccnc2)cc1 (configuration not stated)	-7%	1.0%	i	2%	?	3.4%	-0.9%
COC(=O)C1=C(NC(=O)c2ccc(C)c(C)c2)CCS1	-5%	0.7%	i	-14%	14%	2.4%	-0.2%
COc1ccc(C2CC(c3cccs3)=NN2C(=O)CCl)cc1OC (configuration not stated)	-26%	-1.5%	nt	-21%	8%	-3.4%	-2.7%
CCN(CC)S(=O)(=O)c1ccc(Oc2ccc(S(=O)(=O)N(CC)CC)cc2)cc1	-7%	2.8%	i	-30%	10%	3.9%	-0.8%
COc1ccc(NC(=O)c2ccc(-c3ccccc3)cc2)cc1NS(=O)(=O)c1ccc(F)cc1	-3%	3.1%	i	-15%	18%	5.4%	-1.4%
O=C(Nc1ccc(S(=O)(=O)N2CCCCC2)cc1)c1ccc(CN2CCc3ccccc3C2)cc1	-11%	0.3%	i	26%	27%	-0.7%	-0.2%
O=C(O)CSc1cc(NS(=O)(=O)c2ccc(Cl)cc2)c2ccccc2c1O	7.2µM*	19%	nt	-18%	26%	0.1%	0.2%
COc1ccc(-n2c(C)cc(C(=O)CSc3nnc(-c4cccs4)o3)c2C)cc1	-9%	1.2%	i	-3%	2%	nt	-1.3%
O=c1c2c(nc3c(-c4cccc(Br)c4)c[nH]n13)CCCC2	-2%	3.7%	i	-17%	5%	-2.1%	0.8%	NS5 inhibitors pilot replicate=-1.4
O=C(Nc1nnc(-c2ccccc2Cl)o1)c1ccc(S(=O)(=O)N2CCCCCC2)cc1	nt	-1.3%	i	32%	10%	-5.7%	0.0%
Cc1c(C#N)c(NC(=O)CCl)n(Cc2cccs2)c1C	-8%	10%	i	-3%	27%	-4.0%	-0.8%
Cn1cnnc1Sc1ccc(/C=C/C(=O)c2ccc(O)cc2)cc1[N+](=O)[O-]	-10%	-2.1%	i	20%[20 µM]	5%	-3.3%	-1.3%
COC(=O)c1sc(NC(=O)c2cc(-c3ccccc3)nc3ccccc23)c(C#N)c1C	-14%	0.8%	i	-37%	38%	-3.1%	-0.4%
CCOc1ccc(S(=O)(=O)Nc2cnc3ccccc3c2)cc1	-7%	0.0%	nt	-14%	7%	-5.9%	-0.8%
COc1ccccc1NC(=O)c1cc2cc(Br)ccc2cc1O	52%	48%	i	-24%	24%	1.6%	?
CCc1cc(C(=O)N/N=C/c2ccc(O)cc2O)c2ccccc2n1	-3%	2.6%	nt	13%	16%	-1.0%	0.8%
CCOc1ccc2c(c1)C(=NNC(=O)c1ccncc1)c1cc(OCC)ccc1-2	2%	-0.6%	i	-11%	20%	-8.1%	-0.6%
Cc1ccc2oc(Nc3nc(-c4ccccc4)cc(=O)[nH]3)nc2c1	nt	0.6%	i	12µM*	27%	-5.0%	-0.9%
COc1ccc(-n2nc(C#N)c(Cl)cc2=O)cc1	nt	-1.6%	i	7.2µM*	-7%	-6.9%	1.4%
CCN(CC)C(=O)COc1ccc(S(=O)(=O)N2CCOCC2)cc1	5%	3.6%	i	-20%	0%	0.3%	1.4%
COc1ccc(-c2cc(C(F)(F)F)nc(S(C)(=O)=O)n2)cc1	-27%	18%	i	21%	-1%	0.6%	-0.3%
Cc1ccc(-c2c3c(nc4sc(C(N)=O)c(N)c24)CCC3)cc1	-20%	2.4%	i	0%	21%	6.0%	0.3%
COc1ccccc1CNC(=O)Cn1nnc(-c2ccncc2)n1	-1%	2.4%	i	2%	?	-0.2%	0.3%
Cc1ccc(S(=O)(=O)/N=C2/C=C(Sc3ncn[nH]3)C(=O)c3ccccc32)c(C)c1	nt	25%	i	-52%	35%	2.3%	-2.2%
CC1Cc2ccccc2N1S(=O)(=O)c1cccc(C(=O)N2CCN(c3ncccn3)CC2)c1 (configuration not stated)	2%	-0.8%	i	0%	-4%	-6.0%	0.8%
COc1cccc(/C=N/NC(=O)c2cc3c(OC)ccc(OC)c3[nH]2)c1O	-5%	-2.2%	nt	-9%	27%	3.2%	?
Cc1ccc(-n2nc3c(=O)n(CC(=O)NC(C)CCc4ccccc4)nc(C)c3c2C)cc1 (configuration not stated)	-11%	-1.1%	nt	-8%	13%	5.9%	0.7%
O=S1(=O)C=C(Sc2nc3ccccc3s2)c2ccccc21	nt	-1.3%	i	8%	-75%	-1.6%	-1.9%
Cc1ccccc1Oc1cc(-n2ncc(Cl)c(Cl)c2=O)ncn1	-37%	0.9%	i	-4%	-27%	4.5%	-2.0%
COc1ccc(CNc2ncnc3ccccc23)cc1	2%	0.4%	nt	-42%	14%	-2.1%	-0.5%
CCOc1cc(/C=C2\CCC/C(=C\c3cc(Cl)c(O)c(OCC)c3)C2=O)cc(Cl)c1O	-9%	7.9%	i	-51%	0%	2.7%	0.9%
CC(C)c1ccc(-n2c(-c3ccccc3)c[n+]3c2CCc2ccccc2-3)cc1	-3%	-1.5%	i	-14%	27%	-1.4%	-2.2%
COc1c2c(nc3ccccc13)OC(C(C)(O)CO)C2 (configuration not stated)	-3%	2.2%	i	-5%	-9%	-4.3%	-0.5%
Cc1ccc2[nH]c3c(N4CCN(Cc5ccccc5)CC4)ncnc3c2c1	2%	0.0%	i	-18%	0%	3.9%	1.4%
COc1cc(Nc2nc3ccccc3nc2NS(=O)(=O)c2ccc([N+](=O)[O-])cc2)cc(OC)c1OC	-7%	-0.3%	nt	-6%	12%	5.8%	1.9%
CC1=C(CO)C(=O)OC([C@@H](C)C2CC[C@H]3C4C[C@H]5O[C@]56[C@@H](O)C=CC(=O)[C@]6(C)C4CC[C@]23C)C1 (some centres not stated)	-43%	2.0%	i	16%	6%	2.6%	-1.7%
CCc1c(C(C)O)oc2ccc3c(C)cc(=O)oc3c12 (configuration not stated)	nt	-0.9%	i	-15%	15%	-1.3%	0.0%
Cc1cccc(CSc2cccc3cccnc23)c1	-5%	0.0%	i	8.7µM*	-16%	0.5%	1.2%
CC(C)CC(=O)/C=C/n1c(=S)oc2ccccc21	3%	1.6%	i	-11%	-21%	1.7%	-0.2%
O=C(Nn1cnc2ccccc2c1=O)c1ccc(F)cc1Cl	-4%	2.3%	i	-4%	35%	7.0%	0.1%
O=C(COc1ccccc1Cl)N1CCc2ccccc21	-3%	0.1%	nt	-34%	-1%	1.3%	0.3%

Structures from the list above that have bromine, in the order listed:
SMILES	NS5 inhibitors	HIV fusion peptide	Yfh1-off respiration	KOR beta-arrestin-1	AID2073	KOR beta-arrestin-2	West Nile virus CPE	others
Brc1ccc(-c2cn3ccccc3n2)cc1	-18%	-1.2%	i	-17%	18%	4.6%	-0.2%
O=c1c2c(nc3c(-c4cccc(Br)c4)c[nH]n13)CCCC2	-2%	3.7%	i	-17%	5%	-2.1%	0.8%	NS5 inhibitors pilot replicate=-1.4
COc1ccccc1NC(=O)c1cc2cc(Br)ccc2cc1O	52%	48%	i	-24%	24%	1.6%	?
